MARV entry inh: blocks Marburg virus binding to or entry into cells; 300,000 tested, 1.8% active; Potency, µM (doses to about 37.8 µM), for inactives: at the top dose activity change, negative = inhibition, most hits filed as inhibitors; Marburg virus pseudotyped entry inhibition, cell reporter; control for the full effect not named in the record; about a third of the inactives were read at about 46 µM; active = well fitted inhibition curve with a large enough effect; inconclusive = small, poorly fitted or top-dose-only effect, or effect the other way; inactive = flat fitted curve, though single readings scatter; tested in HEK293 cells; about a fifth of its hits are not listed in these tables; also: % is scaled to controls: 0 for no effect and ±100 for the full control effect; luciferase read-out
RE007 growth inh: less growth of the S. pombe RE007 Vpr strain; S. pombe RE007 Vpr strain, BacTiter-Glo ATP luminescence, 24 h; control for the full effect not named in the record; Potency, µM (series often up to 92.2 µM), for inactives: top-dose activity change, negative = less growth; 360,000 tested, 0.21% active; active = well fitted falling curve with a large enough effect; inconclusive = small, poorly fitted or top-dose-only effect; inactive = no such curve, though single readings can be large or run the other way;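 also: % is scaled to controls: 0 for no effect and ±100 for the full control effect; nearly all actives have a fitted effect of over 50% in size; the assay follows cell death caused by Vpr and the record does not say whether a fall means rescue or toxicity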
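Fission yeast RE007 carrying one integrated HIV-1 vpr copy, seeded at OD 0.01 in PMG+AL medium with 23 nL pinned compound. Grown 24 h at 30 degrees; viability read by BacTiter-Glo luminescence after 5 min.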
Lassa entry inh: Lassa virus entry inhibition | Potency, µM (top dose mostly 37.9 µM), for the others: top-dose activity change, negative = inhibition, hits mostly inhibitors | 300,000 tested, 1.2% active | Lassa virus pseudotype entry inhibition, cell reporter; control for the full effect not named in the record; active means well fitted inhibition curve with a large enough effect; inconclusive means small, poorly fitted or top-dose-only effect, or effect the other way; inactive means flat fitted curve, though single readings scatter; tested in HEK293 cells; also: % is scaled to controls: 0 for no effect and ±100 for the full control effect; nearly all actives have a fitted effect of over 50% in size; luciferase read-out
Cruzain inh noDet: blocks cruzain activity in detergent-free assay. purified cruzain, Z-FR-AMC fluorescence, no detergent. Potency, µM, inactives show max response, negative = inhibition, usual class: inhibitors. P25779. AID 1476. 200,000 tested, 2.3% active; active = well fitted curve in the direction sought with a large enough effect; inconclusive = small, poorly fitted or top-dose-only effect, or another doubt; inactive = no such curve, though single readings can be large; an effect the other way counts as inactive or inconclusive;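 also: plate controls were enzyme without inhibitor for no effect and buffer without enzyme for full effect; nearly all actives have a fitted effect of over 40% in size; top concentration of the series not given in the record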
Target sequence (P25779 123-467 limits assumed): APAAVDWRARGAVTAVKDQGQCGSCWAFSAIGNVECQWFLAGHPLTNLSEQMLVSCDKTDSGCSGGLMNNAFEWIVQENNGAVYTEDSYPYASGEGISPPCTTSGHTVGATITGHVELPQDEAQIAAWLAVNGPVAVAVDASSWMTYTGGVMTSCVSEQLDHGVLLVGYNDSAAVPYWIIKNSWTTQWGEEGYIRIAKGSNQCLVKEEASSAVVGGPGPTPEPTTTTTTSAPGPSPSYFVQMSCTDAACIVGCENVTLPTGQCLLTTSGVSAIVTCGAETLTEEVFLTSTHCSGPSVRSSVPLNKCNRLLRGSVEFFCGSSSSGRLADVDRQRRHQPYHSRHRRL
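Purified cruzain at 1.5 nM, pre-incubated 15 min with compound at room temperature in 100 mM sodium acetate pH 5.5, 5 mM DTT, 0.00005% Triton X-100. Reaction started with 2 uM Z-FR-AMC; AMC fluorescence increase over 60 s gives rate.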
SARS PLpro yeast: blocks SARS-CoV papain-like protease in a yeast assay; Potency, µM (doses to about 32.9 µM), for inactives: top-dose activity, positive = growth rescue; S. cerevisiae expressing SARS-CoV PLpro, growth rescue; control for the full effect not named in the record; 330,000 tested, 0.19% active; also: 0% is about no effect; nearly all actives have a fitted effect of over 55% in size; growth read by luminescence after 48 h
Cruzain inh Det: inhibitors of Trypanosoma cruzi cruzain with detergent; P25779; purified cruzain, Z-FR-AMC fluorescence, 0.01% Triton; Potency, µM, inactives show max response, negative = inhibition, usual class: inhibitors; 200,000 tested, 0.43% active; active = well fitted curve in the direction sought with a large enough effect; inconclusive = small, poorly fitted or top-dose-only effect, or another doubt; inactive = no such curve, though single readings can be large; an effect the other way counts as inactive or inconclusive;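 also: plate controls were neutral wells for no effect and buffer without enzyme for full effect; nearly all actives have a fitted effect of over 40% in size; top concentration of the series not given in the record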
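Z-FR-AMC hydrolysis (2 uM substrate) by cruzain (1.5 nM) monitored kinetically at ex 360/em 450 nm after 15 min room-temperature compound exposure; 0.01% Triton X-100, pH 5.5, 5 mM DTT.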
2A StopGo: FMDV 2A StopGo reporter, luciferase signal; human cells with a luciferase reporter of 2A StopGo recoding; control for the full effect not named in the record; Potency, µM (doses to about 57.9 µM), inactives show top-dose signal change, negative = less light; 410,000 tested, 1.2% active; AID 1159524; active = well fitted falling curve with a large enough effect; inconclusive = small, poorly fitted or top-dose-only effect; inactive = no such curve, though single readings can be large or run the other way; tested in HEK293T cells; also: % is scaled to controls: 0 for no effect and ±100 for the full control effect; nearly all actives have a fitted effect of over 45% in size; luciferase light after 4 h
NS1 inh: influenza NS1 inhibition; S. cerevisiae slowed by influenza A NS1, growth recovery by OD600; Potency, µM (doses to about 46.1 µM), for inactives: at the highest dose activity, positive = more growth; 270,000 tested, 0.4% active; AID 2326; also: actives are rising curves; nearly all actives have a fitted effect of over 50% in size
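S. cerevisiae expressing influenza A NS1, grown in glucose, washed, then diluted 1:100 into pH 6.0 -URA galactose medium with 23 nl compound. Growth recovery read as OD600; NS1-free strain serves as control.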
The depositor's hits bear a star; ? = inconclusive; · = no result given; & = joins results of further samples; [ ] = another dose, or the depositor's remark. Unless noted, calls follow the shape of the dose curve; as a rule, active means well fitted rising curve with a large enough effect; inconclusive means small, poorly fitted or top-dose-only effect; inactive means no such curve, though single readings can be large or run the other way. Potency is read from the fitted curve at half-maximal effect.

SMILES	MARV entry inh	RE007 growth inh	Lassa entry inh	Cruzain inh noDet	SARS PLpro yeast	Cruzain inh Det	2A StopGo	NS1 inh
Cc1ccc(NC(=O)NCc2ccc3c(c2)OCO3)cc1C	-1.8%[46.1 µM]	8.4%	20.3%	·	-2.0%	·	44.0%[activator]	1.4%
COc1cc2c(cc1OC)CN(C(=O)CN1C(=O)NC3(CCCCC3C)C1=O)CC2 (stereo not drawn)	-13.6%	1.1%	0.2%	·	-2.9%	·	-21.2%	·
COc1cc(NC(=O)c2c(F)cccc2F)nc(OC)n1	?	10.3%	10.8%	2.1%	1.6%	2.3%	68.5%[activator]	3.6%
O=C(N/N=C/CCc1ccccc1)c1ccc(CN2c3cccc4cccc(c34)S2(=O)=O)cc1	-23.8%	-9.8%	4.8%	?	?	-1.3%	39.8µM*	8.91µM*
CCc1c(C)[nH]c2ccc(OC)cc2c1=S	-17.2%[46.1 µM]	-11.5%	17.0%	·	-1.1%	·	-4.5%	-3.6%
Cc1ccc(CNCc2ccccc2Cl)cc1	-13.4%	-3.6%	0.3%	-7.9%	-9.2%	2.5%	24.0%	-4.4%
O=C(CN1C(=O)C2CCCCC2C1=O)Nc1ccccc1N1CCCC1 (stereo not drawn)	14.0%[46.1 µM]	4.1%	-16.4%	·	-2.2%	·	-5.4%	·
CCOc1ccc(C2CC(c3ccc(F)cc3)Nc3nc(N)nn32)cc1 (stereo not drawn)	10.0%	-2.5%	5.8%	0.1%	-11.3%	-0.6%	-15.9%	-7.0%
CCOC(=O)C1=NOC(CN(c2ccccc2)S(=O)(=O)c2ccc(Cl)cc2)C1 (stereo not drawn)	?	14.1%	2.8%[46.1 µM]	·	-2.2%	·	0.9%	·
CCOC(=O)c1c(S(=O)(=O)N2CCN(Cc3ccccc3)CC2)c(C)n(C)c1C	·	7.3%	·	·	-2.0%	·	25.5%	3.4%
CCCCCCNc1nc(-c2ccc(OC)cc2)c(CCC(=O)O)s1	22.7%	7.6%	-3.2%	18.4%	-0.9%	-8.9%	-10.5%	5.5%
COc1nc(C)ccc1-c1noc(-c2cccnc2)n1	·	1.5%	·	·	-1.4%	·	22.9%	-7.1%
CC(C)CN1CCN(C(=O)CCc2nnc(Cc3c[nH]c4ccccc34)o2)[C@@H](C)C1=O	25.2%[46.1 µM]	-14.1%	-17.8%[46.1 µM]	·	2.8%	·	13.6%	7.5%
CCn1c(=O)cc(OCC(=O)Nc2cc(C)ccn2)c2ccccc21	17.7%	3.0%	-1.6%	-17.9%	7.2%	-5.0%	-5.9%	-12.5%
Cc1ccc2c(c1)CCCN2C(=O)C1CCCO1 (stereo not drawn)	?	-10.5%	-22.0%	1.6%	1.0%	7.6%	-14.2%	6.2%
CC(C)(C)n1cnc2cc(NS(=O)(=O)c3ccc(Br)cc3)ccc21	-1.7%&-1.7%&-1.7%	14.7%	?	-3.3%	3.4%	-2.7%	?	-13.8%
O=S1(=O)CCC(S(=O)(=O)N2CCCCCC2)C1 (stereo not drawn)	?	22.9%	2.2%	-11.9%	-4.9%	-0.5%	-0.6%	-1.7%
CCn1cc([N+](=O)[O-])c(C(=O)Nc2nc3ccc(OC)cc3s2)n1	·	-5.3%	·	·	1.0%	·	32.3%[activator]	-2.0%
Cc1ccc(-c2csc(N3N=C(c4ccccc4)/C(=C\c4ccc(N(C)C)cc4)C3=O)n2)cc1	2.9%	·	·	-21.1%	6.4%	-9.4%	·	-52.9%
CCCC(c1nnnn1CCc1ccccc1)N1CCN(C2CCCC2)CC1 (stereo not drawn)	?	2.3%	19.0%	8.3%	-0.5%	1.6%	-18.9%	-2.0%
CCc1cccc(CC)c1NC(=O)CO/N=C(\C)c1cccs1	14.7%	9.1%	3.5%	-4.8%	?	-7.0%	-24.3%	3.0%
COc1cccc(OC)c1C(=O)OCC(=O)Nc1ccc(OC(F)(F)F)cc1	4.2%	-2.0%	1.2%	?	-28.0%	-5.2%	-29.8%	-62.7%
COc1ccc(Br)cc1C(=O)NCc1cccnc1	5.9%	-13.5%	-11.4%	4.1%	2.3%	0.0%	-11.4%	3.3%
CSc1ccccc1NC(=O)c1onc(C)c1Cl	·	-12.8%	·	4.7%	-3.4%	-1.7%	-3.8%	-121.7%
O=C(/C=C/c1ccco1)NC(=S)Nc1ccc(Cl)cn1	2.7%	?	2.9%	0.0%	13.9%	-11.2%	7.0%	0.1%
CC(=O)N1CCN(CC(=O)Nc2c(Cl)cc(Cl)cc2Cl)CC1	7.5%	4.8%	-1.8%	-13.1%	3.5%	0.8%	8.5%	-4.5%
CC1C(=O)N2CCCc3cc(NC(=O)C4CCCCC4)cc1c32 (stereo not drawn)	6.5%	25.5%	-3.8%	·	1.8%	·	-6.3%	·
CC(C)CC(NC(=O)C(CC(C)C)NC(=O)OC(C)(C)C)C(N)=O (stereo not drawn)	-9.2%	4.1%	2.1%	15.8µM*	-14.0%	?	3.6%	1.5%
O=C(CN1CCN(c2ccccc2)CC1)N1CCN(c2ccccc2)CC1	4.5%	-1.9%	?	16.6%	-1.6%	3.9%	-10.1%	-21.0%
CCC(CC)C(=O)Nc1cccc(C(=O)NCc2ccco2)c1	2.5%	2.9%	9.2%	12.4%	-0.4%	4.0%	-7.5%	-8.5%
CCCC(=O)N1CCC(Cc2ccccc2)CC1	·	1.9%	·	·	-1.7%	·	-19.2%	1.1%
COc1ccccc1C(c1nnnn1C(C)(C)C)N1CCN(C(=O)c2ccco2)CC1 (stereo not drawn)	?	23.0%	-9.9%	1.0%	3.1%	7.4%	-25.5%	0.9%
CCOc1ccccc1C(=O)NC(C)c1ccc(-n2ccnc2)cc1 (stereo not drawn)	14.0%	-13.9%	-2.2%	·	0.2%	·	-12.4%	0.9%
CN(C)CC(CCC(CN(C)C)C(O)(c1ccccc1)c1ccccc1)C(O)(c1ccccc1)c1ccccc1 (stereo not drawn)	?	21.7%	?	·	1.5%	·	-17.0%	-2.6%
CN1C(C)(C)CC(NC(=O)c2ccco2)CC1(C)C	·	16.6%	·	·	-12.5%	·	-2.5%	-5.0%
CCC(CC)C(=O)NCc1cccnc1	7.0%[46.1 µM]	2.5%	26.8%	·	0.5%	·	-0.1%	·
O=C(CCc1ccc(S(=O)(=O)N2CCOCC2)cc1)NCCc1ccccn1	0.9%	14.9%	11.7%	6.1%	-1.6%	4.0%	-15.5%	5.8%
CC(C)(C)OC(=O)N1CCC(c2c(C(=O)N3CCC(c4ccccc4)C3)cnn2-c2ccc(Cl)cc2)CC1 (stereo not drawn)	·	·	?	2.4%	·	-3.1%	?	·
CCC(=O)c1ccc(OCC(=O)OCC(=O)Nc2ccc3c(c2)OCCO3)cc1	-8.5%[46.1 µM]	4.5%	2.6%[46.1 µM]	·	-6.9%	·	6.1%	·
Cc1ccc(CNC(=S)NC2CCC(C(C)(C)C)CC2)cc1 (stereo not drawn)	·	-2.8%	·	·	-5.0%	·	-4.4%	?

3 records drawn at random from the list so far, as already listed:
SMILES	MARV entry inh	RE007 growth inh	Lassa entry inh	Cruzain inh noDet	SARS PLpro yeast	Cruzain inh Det	2A StopGo	NS1 inh
CN(C)CC(CCC(CN(C)C)C(O)(c1ccccc1)c1ccccc1)C(O)(c1ccccc1)c1ccccc1 (stereo not drawn)	?	21.7%	?	·	1.5%	·	-17.0%	-2.6%
CN1C(C)(C)CC(NC(=O)c2ccco2)CC1(C)C	·	16.6%	·	·	-12.5%	·	-2.5%	-5.0%
CCC(=O)c1ccc(OCC(=O)OCC(=O)Nc2ccc3c(c2)OCCO3)cc1	-8.5%[46.1 µM]	4.5%	2.6%[46.1 µM]	·	-6.9%	·	6.1%	·

Next section
SMILES	MARV entry inh	RE007 growth inh	Lassa entry inh	Cruzain inh noDet	SARS PLpro yeast	Cruzain inh Det	2A StopGo	NS1 inh
O=C(NC(=S)Nc1ccccc1Cl)c1csnn1	23.9%	-8.9%	17.4%	-21.8%	-9.3%	-13.0%	·	10.3%
O=C(COc1ccc([N+](=O)[O-])cc1)Nc1ccc2c(c1)nc1n2CCOC1	·	-2.9%	·	·	-0.6%	·	-13.6%	2.6%
Cc1ccc(CCC(=O)Nc2ccc(Br)cc2)o1	·	-9.6%	·	·	-3.2%	·	19.9%	-22.5%
CCOc1ccccc1NC(=O)c1c(NCc2sccc2C)sc2c1CCC(C)C2 (stereo not drawn)	·	·	2.0%[46.1 µM]	-3.8%	·	5.3%	34.9%[activator]	·
COc1cccc(NC(=O)CN2CCSc3ccccc32)c1	?	-4.0%	?	·	-0.5%	·	5.6%	·
CCC(C)c1ccccc1N1CC(C(=O)N2CCN(S(=O)(=O)c3ccccc3Br)CC2)CC1=O (stereo not drawn)	1.3%[46.1 µM]	-12.0%	-3.7%	·	2.9%	·	-22.2%	·
Cc1ccc(CCNC(=O)CCCc2nnc3n(C)c(=O)c4sccc4n23)cc1	-8.3%[46.1 µM]	·	-11.3%[46.1 µM]	1.5%	·	-0.8%	-2.1%	·
COc1ccc(C(=O)Nc2ccc(N(C)Cc3ccccc3)c(C(=O)O)c2)cc1	·	·	-9.7%[46.1 µM]	1.2%	·	1.1%	10.3%	·
Cc1ccc2c(c1)N(CC(=O)NC1CCC(C)CC1)C(=O)CO2 (stereo not drawn)	1.0%	-8.2%	8.3%	1.8%	4.1%	2.3%	27.3%	1.0%
CCOc1ccc(NC(=O)c2ccc(CSc3nnc(C)s3)cc2)cc1	-24.2%[46.1 µM]	1.0%	1.8%	·	-0.4%	·	17.3%	4.4%
O=C(CN1CCC(C(=O)c2cccc(Cl)c2)CC1)Nc1ccc(C(=O)O)cc1	-10.3%[46.1 µM]	?	10.4%	·	0.1%	·	-16.8%	1.7%
CCC1CCCCN1CCn1c(=S)[nH]c2cc(OC)c(OC)cc2c1=O (stereo not drawn)	-20.0%	7.0%	4.7%	-6.3%	-6.1%	-3.7%	-2.7%	-22.4%
O=C(CSc1nc(-c2ccccc2)cc(C(F)(F)F)n1)N1CCOCC1	1.8%	6.7%	-5.7%	1.5%	-0.9%	-4.1%	-17.4%	-0.2%

Source: PubChem BioAssay (National Center for Advancing Translational Sciences (NCATS))
